# Bm FixLJ act = activators of Burkholderia fixLJ two-component system, primary screen, B. multivorans, GFP reporter; B. multivorans fixK-promoter GFP reporter, 18 h; stronger effect = higher value; z-score (concentration not given with the values); 29,000 tested, 0.3% active;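 active = replicate mean overnight rise in green fluorescent reporter signal, 3 or more SD over negative controls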;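 note: score is relative to vehicle wells of the plate; 300 nL library stock went into each well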
# Numbers without * were called inactive. A portion of the library; count on the stated rates, not on these rows.
SMILES,Bm FixLJ act
Cc1cccc(C)c1NC(=O)C(NS(=O)(=O)c1ccc2c(c1)CCC(=O)N2)c1ccccc1 (configuration not stated),-0.21
CC(=O)C1(c2ccccc2)CCN(C(=O)C(C)n2cc(C)cn2)CC1 (configuration not stated),-0.72
O=C(O)c1nc2ccccn2c1-c1ccc(F)c2cccnc12,-0.55
CCS(=O)(=O)CCNC(=O)N(Cc1ccccn1)Cc1sccc1C,-0.65
CC(CCC(=O)O)[C@H]1CCC2C3C(=O)C[C@@H]4CC(=O)CC[C@]4(C)C3CC(=O)[C@@]21C (some centres not stated),0.5
CCCC(=O)N1CC(=O)Nc2ccc(Cl)cc2C1c1ccc(F)cc1 (configuration not stated),0.13
CC(C)C1CN(S(=O)(=O)N(C)C)CCC(=O)N1CC1CC1 (configuration not stated),-0.49
Cc1nc2nc(C)c(CCC(=O)NCc3ccccc3)c(C)n2n1,0.07
Cn1ccnc1CNC(=O)c1ccc(CSc2ccccn2)cc1,-2.4
O=C(Cn1nc(Cc2cccnc2)c2ccccc2c1=O)N1CCN(c2ccccc2F)CC1,0.29
Cc1cccc(-c2nc3cc(NC(=O)Cc4ccc(Cl)cc4)ccc3o2)c1,-1.6
CCc1ccc(S(=O)(=O)c2nnn3c2nc(N2CCN(c4ccccc4)CC2)c2cc(Cl)ccc23)cc1,0.31
Cc1ccc(NC(=O)c2cc3c(-c4ccccc4)nn(-c4ccccc4)c3s2)cc1,-0.68
O=S(=O)(Nc1ccc2oc3c(c2c1)CCCC3)c1cc(Cl)ccc1Cl,0.01
CCOC(=O)C1=C(CN2CCCCC2)NC(=O)NC1c1ccc(C)cc1 (configuration not stated),-0.7
N#C/C(=C\c1cccc(F)c1)c1nc(-c2cc3ccccc3oc2=O)cs1,0.37
Cc1nn(CC(=O)O)c(=O)c2cc3cc(F)ccc3n12,1.2
Cc1ccc(N(CC(=O)Nc2cccc(F)c2)S(=O)(=O)c2cccs2)cc1,-1.2
CCCN(CCC)C(=O)C(Cc1ccccc1)NS(=O)(=O)c1ccc2c(c1)c(=O)n(C)c(=O)n2C (configuration not stated),-0.21
CCOc1ccc(CCNC(=O)CCCc2nnc3n(CC)c(=O)c4sccc4n23)cc1OCC,1.1

# No new results follow: entries from further up.
SMILES,Bm FixLJ act
CCCC(=O)N1CC(=O)Nc2ccc(Cl)cc2C1c1ccc(F)cc1 (configuration not stated),0.13
CC(C)C1CN(S(=O)(=O)N(C)C)CCC(=O)N1CC1CC1 (configuration not stated),-0.49
Cc1nc2nc(C)c(CCC(=O)NCc3ccccc3)c(C)n2n1,0.07
Cn1ccnc1CNC(=O)c1ccc(CSc2ccccn2)cc1,-2.4
O=C(Cn1nc(Cc2cccnc2)c2ccccc2c1=O)N1CCN(c2ccccc2F)CC1,0.29
Cc1cccc(-c2nc3cc(NC(=O)Cc4ccc(Cl)cc4)ccc3o2)c1,-1.6
CCc1ccc(S(=O)(=O)c2nnn3c2nc(N2CCN(c4ccccc4)CC2)c2cc(Cl)ccc23)cc1,0.31
Cc1ccc(NC(=O)c2cc3c(-c4ccccc4)nn(-c4ccccc4)c3s2)cc1,-0.68
O=S(=O)(Nc1ccc2oc3c(c2c1)CCCC3)c1cc(Cl)ccc1Cl,0.01
CCOC(=O)C1=C(CN2CCCCC2)NC(=O)NC1c1ccc(C)cc1 (configuration not stated),-0.7
N#C/C(=C\c1cccc(F)c1)c1nc(-c2cc3ccccc3oc2=O)cs1,0.37
Cc1nn(CC(=O)O)c(=O)c2cc3cc(F)ccc3n12,1.2
Cc1ccc(N(CC(=O)Nc2cccc(F)c2)S(=O)(=O)c2cccs2)cc1,-1.2
CCCN(CCC)C(=O)C(Cc1ccccc1)NS(=O)(=O)c1ccc2c(c1)c(=O)n(C)c(=O)n2C (configuration not stated),-0.21
CCOc1ccc(CCNC(=O)CCCc2nnc3n(CC)c(=O)c4sccc4n23)cc1OCC,1.1

# (list continues)
SMILES,Bm FixLJ act
Cc1c(Cl)cccc1Nc1sc(C(=O)c2ccccc2)c(N)c1S(=O)(=O)c1ccccc1,-1.3
CCOC(=O)CCc1c(C)c2cc3c(c(C)c2oc1=O)OCN(CCc1ccccc1OC)C3,-1.1
Cc1ccc(-c2nnc(Nc3ccc(Cl)cc3)c3ccccc23)cc1S(=O)(=O)N1CCOCC1,1.5
COc1ccc(N(CC(=O)NCCc2ccc(C)cc2)S(=O)(=O)c2c(C)nn(C)c2C)cc1,-1.6
CCOc1ccc(NC(=O)CCc2c(C)nc3cc(-c4ccccc4OC)nn3c2C)cc1,-0.07
CCN1CC(CN(C)C(=O)c2cc(CC(C)C)nc(N)n2)CC1=O (configuration not stated),-0.32
CCOc1ccc(N(C(C)C(=O)Nc2cc(Cl)ccc2OC)S(C)(=O)=O)cc1 (configuration not stated),-1.4
CCOC(=O)c1c(NC(C)=O)c2c3c(sc2n1Cc1nc(-c2ccccc2Cl)oc1C)CCCC3,-1.1
Cc1cc(NC(=O)c2cnn(-c3ccccc3)c2-n2cccc2)ccc1Br,0.74
Cc1c2cnn(CC(=O)N3CCCCC3)c(=O)c2c(C)n1Cc1ccc(F)cc1,-2.1
Cc1nc2ccc(S(=O)(=O)NCC(=O)NCc3ccc(Cl)cc3)cc2s1,-1.1
CC(C)(O)C#Cc1ccc(CN2CCC(C(=O)O)(c3ccccc3)C2)s1 (configuration not stated),-2.5
COc1cccc(CNc2ccc3c(c2)ncn3C)c1OC,-0.3
Cc1cc(C)cc(C(=O)Nc2ccc(-c3nc4ncccc4o3)cc2)c1,-1.1
CCOC(=O)c1[nH]c2c(c1Cc1ccccc1OC)C(=O)CC(c1ccc(OC)cc1)C2 (configuration not stated),-0.41
COC(=O)c1c(NC(=O)CCCOc2ccccc2C)sc2c1CCC2,0.96
Cc1ccc(S(=O)(=O)NC2(C(F)(F)F)NC(=O)N(c3ccc(F)cc3)C2=O)cc1 (configuration not stated),-0.61
CCOc1ccc(-c2n[nH]c3c2C(c2ccccc2OC)N(c2ccc(Br)cc2)C3=O)cc1 (configuration not stated),-0.62
O=C1c2[nH]nc(-c3ccccc3O)c2C(c2ccccc2F)N1Cc1cccnc1 (configuration not stated),-0.78
CC(C)c1ccc(NC(=O)C(NS(=O)(=O)c2ccc3c(c2)CCC(=O)N3)c2ccccc2)cc1 (configuration not stated),0.15
COc1ccc(C(=O)Nc2cc(S(=O)(=O)c3ccc(Cl)cc3)c(O)c(C)c2C)cc1,-4.2
Nc1c(C(=O)NCc2ccc(Cl)cc2Cl)nnn1Cc1ccc(Br)cc1,-1.8
COc1ccc(C(=O)N2CCc3c(nc(-c4ccncc4)[nH]c3=O)C2)c(O)c1,-3.3
Cc1ccc(Cn2c(C)c(CNCC(C)c3ccccc3)c(C(=O)O)c2C)cc1 (configuration not stated),-3.4
Cc1ccc(NC(=O)c2ccc3c(c2)NC(=O)c2ccccc2S3)cc1,-1.4
CCC(=O)N1CCc2cc(Br)cc(S(=O)(=O)CCC(=O)N3CCN(c4cccc(C(F)(F)F)c4)CC3)c21,-1.4
Cc1ccc(-c2nc(NC(=O)CSc3ncnc4sc5c(c34)CCC(C)C5)ns2)cc1 (configuration not stated),0.36
Cc1ccc2c(c1)-c1cc(C)nn1C(c1cc(Br)ccc1O)N2 (configuration not stated),2.8
O=C(c1ccc2c(c1)N(Cc1ccccc1F)C(=O)c1ccccc1S2=O)N1CCC(Cc2ccccc2)CC1 (configuration not stated),-1
O=C(NCc1ccccc1Br)c1ccc2nc(N3CCCCC3)sc2c1,-0.96
COc1ccccc1-c1cc(C(=O)Nc2cccc(-c3n[nH]c(C)n3)c2)[nH]n1,-0.27
COc1cc(OC)c(NC(=O)C2=C(C)C(=O)OC23CCCCC3)cc1Cl,-1.9
O=C(c1ccc(F)cc1)n1nc(-c2ccccc2)nc1NCc1ccco1,0.04
Cc1nsnc1C(=O)N1CCCC(OCc2ccccn2)C1 (configuration not stated),0.07
Cc1ccccc1Cn1nc(C)c(NC(=O)c2cc(CC(C)C)on2)c1C,-1.8
CCn1c(CN2CCCC2)nnc1C1CCN(C(=O)c2ccccc2)CC1,-0.59
CC(=O)N(C)c1ccc(-c2cccc(C(=O)NCC3CCCCN3C)c2)cc1 (configuration not stated),0.9
Cn1c(=O)c2c(nc(N3CCOCC3)n2Cc2ccccc2Cl)n(C)c1=O,-3.1
COc1cc(NC(=O)c2ccc(C)c(Cl)c2)ccc1NC(=O)c1cc2ccccc2o1,-1.6
CCOC(=O)N1CCN(C(=O)CN(c2ccc(C)cc2C)S(=O)(=O)c2ccccc2)CC1,-0.86
COc1cccc(N2CCN(C(=O)C3CCC(CNS(=O)(=O)c4ccc(Br)s4)CC3)CC2)c1 (configuration not stated),-0.61
Cc1sc2ncn(CC(=O)N3CCN(c4ccc(F)cc4)CC3)c(=O)c2c1S(=O)(=O)N1CCCCC1,-1
CC1=C(C(=O)OCC2CCCCC2)C(c2ccccc2F)CC(=O)N1 (configuration not stated),0.32
CC(=O)N1CCc2cc(Br)cc(S(=O)(=O)CCC(=O)NCc3ccc(F)cc3)c21,-1.1
COc1cccc(C2CN(C(=O)CN3CCCC3=O)CC2C(=O)O)c1OC (configuration not stated),-0.71
Cc1ccc2occ(CC(=O)Nc3c(C)cccc3C)c2c1,0.12
CCC(=O)N1CCc2cc(S(=O)(=O)CCC(=O)Nc3ccc(OC(F)(F)F)cc3)ccc21,-0.46
CCS(=O)(=O)c1ncc(Cl)c(C(=O)N2CCN(c3cccc(Cl)c3)CC2)n1,-0.69
CCCCN(CCCC)C(=O)CN(C)S(=O)(=O)c1ccc2c(c1)c(=O)n(C)c(=O)n2C,-0.51
Cc1cc(NCc2ccc(Cl)cc2)n2cnnc2n1,-0.82
# Continuation:
SMILES,Bm FixLJ act
Cc1noc(C)c1NC(=O)NCc1ccc2[nH]c3c(c2c1)CCCC3,2.6
CCC(C(=O)NC1CCCCC1)n1c(SCc2cccc(F)c2)nc2ccncc21 (configuration not stated),0.38
CCOc1ccc(C2CC(=O)c3c([nH]c(C(=O)OCCOc4ccccc4)c3C)C2)cc1 (configuration not stated),-0.55
CCOc1ccc(NC(=O)CSc2nc3c(oc4ccccc43)c(=O)n2CCOC)cc1,-1.1
CN(C)c1nc2c(c(=O)[nH]1)CCN(C(=O)CC1C=CCC1)CC2 (configuration not stated),0.54
COc1cccc(/C=C/C(=O)Nc2ccc3nc(N4CCN(C)CC4)cc(C)c3c2)c1OC,-2.8
COC(=O)CC1Oc2ccccc2-n2cc(-c3ccc(C)cc3)nc21 (configuration not stated),0.43
Cc1cccc(C)c1Nc1c(-c2cccs2)nc2ncccn12,-0.37
COC(=O)c1cc2oc(C)cc2n1Cc1cc(C)ccc1C,0.99
CCC(C)[C@H]1O[C@]2(CC[C@@H]1C)C[C@@H]1C[C@@H](C/C=C(\C)[C@@H](OC3C[C@H](OC)C(O[C@H]4C[C@H](OC)[C@@H](O)[C@H](C)O4)[C@H](C)O3)[C@@H](C)/C=C/C=C3\CO[C@@H]4[C@H](O)C(C)=C[C@@H](C(=O)O1)[C@]34O)O2 (some centres not stated),-0.38
CCOC(=O)c1c(Nc2ccccc2)nnc(-c2ccccc2)c1-c1ccccc1,2.1
COc1ccc(NC(=O)Cn2c(=O)n(CCC(=O)NCCc3ccc(OC)c(OC)c3)c(=O)c3ccccc32)cc1Cl,-0.32
COC(=O)c1ccc(NC(=O)CN2C(=O)c3cccc4cccc2c34)cc1,-3.4
COc1cccc(C2c3c(oc4cc(C)cc(C)c4c3=O)C(=O)N2CCc2ccc(OC)c(OC)c2)c1 (configuration not stated),-0.53
COc1cccc(COC(=O)c2nn(-c3ccccc3)nc2N)c1,0.68
CC1CN(C(=O)CCC(=O)NCc2cccc(Cl)c2)c2ccccc2S1 (configuration not stated),-0.57
Cc1oc2c(c(C)cc3oc(=O)c(CC(=O)NCCc4ccc(Cl)cc4)c(C)c32)c1C,-1.1
COc1cccc(NC(=O)CCc2c(C)nc3nc(CNC(=O)c4cccc(F)c4)nn3c2C)c1,-0.84
Cc1sc2c(c1C)c(=O)n(-c1ccccc1)c(=O)n2CC(=O)c1ccc(Cl)cc1,-1.3
CCCn1cnnc1Cn1cc(-c2oc3ccc(C)cc3c2C)nn1,-0.28
COC(=O)c1cc(OC)c(OC)c(OC)c1NC(=O)c1cc(=O)n(C)c(=O)n1C,-1.5
CCc1nn(Cc2c(C)cc(C)cc2C)c(=O)c2cc3cc(C)ccc3n12,-1.6
OCC1CCCCN1CCNCc1cnn(-c2ccccc2Cl)c1 (configuration not stated),-0.77
CCOC(=O)C1=C(CS(=O)(=O)c2ccc(OC)c(Cl)c2)NC(=O)NC1c1cccc(OC)c1 (configuration not stated),-0.22
CCn1c(=O)c2sccc2n2c(CCC(=O)Nc3cc(C)cc(C)c3)nnc12,-1.1
CC(=O)N1CCc2cc(S(=O)(=O)NC(Cc3ccccc3)C(=O)Nc3cccc(C)c3)ccc21 (configuration not stated),-1.9
CCN1CCN(C(=O)Cn2ncc3c4ccccc4n(Cc4ccccc4)c3c2=O)CC1,-3
CC(=O)c1cccc(NC(=O)Cn2cnc3c2c(=O)n(C)c(=O)n3C)c1,-2.5
COc1ccc(C2c3c(oc4ccccc4c3=O)C(=O)N2c2nc(C)c(C)s2)cc1 (configuration not stated),-1.3
CCOC(=O)c1c(-c2ccccc2)csc1NC(=O)c1cc(-c2cccc(OC)c2)on1,-1.1
CCn1c2ccccc2c2cc(CN3CCN(Cc4ccc(Br)cc4)CC3)ccc21,-0.08
COc1ccccc1CNc1nc2c(S(=O)(=O)c3ccccc3)nnn2c2ccc(Cl)cc12,0.51
CCCC1C=CCN1C(=O)c1cc(-c2c(C)nn(C)c2C)nn1C (configuration not stated),-0.55
CCCCOc1ccc(CN2C(=O)C(=O)c3cc(Br)cc(C)c32)cc1OC,0.72
Cc1ncn(CCNC(=O)c2c(C)c(C)c(C)[nH]c2=O)c1C,0.64
c1ccc(CCc2n[nH]c(Cc3ccc(-n4cnnn4)cc3)n2)cc1,-2.1
COc1cccc(NC(=O)c2cn(C3CCCCC3)c(=O)c3c2c2ccccc2n3C)c1,-0.35
CCn1cc(CNC(=O)Cc2c(C)[nH]c3c(C)ccc(C)c23)c(C)n1,0.79
Cc1c(NC(=O)C(N)Cc2cnc[nH]2)cccc1C(=O)Nc1nccs1 (configuration not stated),0.61

# High-throughput results from PubChem BioAssay.
